PrP 5UTR inh – inhibition of PrP 5' UTR reporter expression; cell-based PrP 5' UTR mRNA reporter, plate reader; inhibition, % (concentration not given with the values); hit rate 0.35% among 340,000; AID 488862, 2010;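 active = every replicate at 50% or more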;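 note: 0 = median of the neutral control wells; tested in H4 reporter cells; numbers are from one replicate; inactives centre near -14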
BJeLR viability – MLPCN primary cell-based screen for lethality selective to Ras in HRASV12 cells | BJeLR (HRASV12) viability, CellTiter-Glo ATP luminescence, 48 h; reference of the scale not given here | inhibition, % (no concentration beside the values) | hit rate 0.17% among 300,000;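 active = replicate mean above 50%; inconclusive = above 50% but judged a plate artefact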;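 note: 50 nL library stock added to about 25 µL; numbers are from one replicate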
ugtP null kill – growth inhibition of ugtP-null S. aureus, primary screen, RN4220 ugtP deletion, OD600; 16 h; some inactives read as strong as hits; growth inhibition, % (no concentration beside the values); hit rate 0.54% among 330,000;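 active = z-score under -3 and OD600 up to 0.15 on both plates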;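 note: plate controls were untreated wells for no effect and antibiotic for full effect; wells of about 80 µL received 100 nL stock; the first replicate is given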
Mtb hypoxia rep – PubChem AID 1159583. fluorescence inhibition, % (no concentration beside the values). M. tuberculosis hypoxia-regulated fluorescent reporter, fluorescence. hit rate 0.1% among 300,000;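 active = 35 to 45% if threefold the growth effect, above 45% if 1.5-fold the growth effect; inactive = the rest, general growth blockers included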;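 note: wells of about 50 µL received 100 nL stock; 0% = vehicle wells and 100% = reference inhibitor wells; whole bacteria with a GFP reporter of the hypoxia response; strong numbers were not always called active; many hits fall short of the cut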
Sa RN4220 lethal – growth inhibition of S. aureus RN4220, primary screen, OD600; 16 h; inhibition, % (no concentration beside the values); hit rate 0.33% among 330,000; AID 1259311, 2017;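 active = z-score of -3 or lower and OD600 up to 0.18 on both plates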;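 note: plate controls were untreated cells for no effect and reference antibiotic for full effect; stock transfer was 100 nL into about 80 µL; one replicate is shown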
Autofluor counter – compound fluorescence in toxin protease inhibitor counterscreen; compound autofluorescence counterscreen, microsphere flow cytometry; hits give high values; fluorescence intensity (no concentration beside the values); hit rate 3.1% among 360,000;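 active = at least 3 SD above the mean of all compounds, about 16000 in these data; inconclusive = too few beads counted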;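 note: 100 nL of 1 mM stock went into each well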
Mtb hypoxia rep growth – second read-out of Mtb hypoxia rep, no call of its own (marks repeat the call); growth inhibition, %; measured here: M. tuberculosis growth (absorbance);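 0% = vehicle and 100% = reference antibiotic; read after six days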
The depositor's hits bear a star; ? = inconclusive; nt = not tested or not shown.

(1) O=C(CCc1ccccc1O)NC1CCCc2ccccc21 (stereo not drawn)
(2) Cc1ccccc1C(=O)c1cccn1CC(=O)NCCCN1CCc2ccccc2C1
(3) CC(=O)Nc1sc2c(c1C(c1cccc(Cl)c1)N1CCN(CCO)CC1)CCCC2 (stereo not drawn)
(4) Cc1ccc(NC(=O)C2CC(=O)N(Cc3ccco3)C2)cc1 (stereo not drawn)
(5) Cn1c(NC(=O)C[n+]2cc(-c3ccc(Cl)c(Cl)c3)n3c2CCC3)cc(=O)n(C)c1=O
(6) CCOC(=O)C(C)Oc1cc(Cl)c(C=O)cc1OC (stereo not drawn)
(7) CCCCS(=O)(=O)NC1=NCN(CC)CN1
(8) COC(=O)c1cc(S(=O)(=O)NCC2CCN(Cc3cccc(F)c3)CC2)cn1C
(9) CC(=O)Oc1c(Br)cc(N(C(C)=O)S(=O)(=O)c2ccccc2)c2ccccc12
(10) O=C(Nc1c(C(=O)Nc2cccc(F)c2)oc2ccccc12)c1ccc2c(c1)OCO2
Compound	1	2	3	4	5	6	7	8	9	10
PrP 5UTR inh	-6	-13	1	-19	1	-3	-34	-3	11	nt
BJeLR viability	-6	5	-18	-6	-1	-4	4	0	-9	-17
ugtP null kill	-8	5	3	6	7	nt	4	5	0	-19
Mtb hypoxia rep	-12	14	nt	-4	2	nt	12	8	-2	2
Mtb hypoxia rep growth	7	10	nt	5	2	nt	0	-4	-3	1
Sa RN4220 lethal	-4.9	-0.9	-2.4	3.3	2.6	nt	0.2	2.4	13	-3.5
Autofluor counter	3653	4732	6193	3295	2176	4609	6496	5913	nt	8437

(11) CCOc1ccc(NC(=S)Nc2ccc(OC(F)(F)F)cc2)cc1
(12) CCC(=O)N1CCc2cc(Br)cc(S(=O)(=O)N(C)c3ccc(OC)cc3)c21
(13) CC1(C)OC(=O)C(=CNCC(O)c2ccccc2)C(=O)O1 (stereo not drawn)
(14) O=C(CN1CCN(S(=O)(=O)N2CCCCC2)CC1)Nc1ccc(Br)cc1
(15) CCCCn1c(N)c(N(CCOC)C(=O)c2ccc(-c3ccc(Cl)cc3)o2)c(=O)[nH]c1=O
(16) Cc1ccn2c(c1)nc(=O)c1cc(S(=O)(=O)N3CCOCC3)ccc12
(17) CSc1nc2ccc(S(=O)(=O)Nc3c(C)n(C)n(-c4ccccc4)c3=O)cc2s1
(18) N#Cc1ccc(N2CCCNCC2)nc1
(19) Cc1cc(C)n2c(SCCC(C)C)nnc2n1
(20) Cc1onc(-c2c(Cl)cccc2Cl)c1C(=O)Nc1nc(C(C)(C)C)cs1
Compound	11	12	13	14	15	16	17	18	19	20
PrP 5UTR inh	-8	-11	-8	-7	-10	-5	-17	1	-8	-11
BJeLR viability	15	-7	-7	-6	0	7	0	2	0	4
ugtP null kill	-5	-3	5	2	0	8	1	8	-2	nt
Mtb hypoxia rep	nt	15	14	-2	-1	14	2	-3	12	nt
Mtb hypoxia rep growth	nt	5	7	3	1	1	-9	-5	15	nt
Sa RN4220 lethal	0.6	6.4	0.8	-1.3	0.5	3.7	0.0	3.2	-8.9	nt
Autofluor counter	3179	3019	9706	5265	4145	5936	6997	2996	2464	?

(21) Cc1cc(C)c(-c2cc(NC(=O)COC(=O)c3ccc(NC(=O)CC#N)cc3)n(-c3ccccc3)n2)cc1C
(22) COc1ccc(OC)c(NC(=O)CCNS(=O)(=O)c2ccc3c(c2)oc(=O)n3C)c1
(23) CCOC(=O)C1=C(C)N(c2ccc(C)cc2)C(=O)/C1=C\c1ccc(O)c(OC)c1
(24) O=C(COc1ccccc1)N=C1SC2CS(=O)(=O)CC2N1c1ccc(F)cc1F (stereo not drawn)
(25) C=CCOc1ccc(C=NNc2ccccn2)cc1OC
(26) Cc1ccc(-c2noc(C3CCCN(C(=O)c4cccc([N+](=O)[O-])c4)C3)n2)o1 (stereo not drawn)
(27) CCCCC(CC)CNC(=O)c1[nH]c(C)c(C(C)=O)c1C (stereo not drawn)
(28) O=S1(=O)CCN2C(=N1)Sc1c2ccc2c1CCCC2
(29) Nc1cc(S(=O)(=O)N2CCOCC2)ccc1N1CCOCC1
(30) CC(C)(C)c1cc(NCc2ccccn2)n2ncc(-c3ccc(Cl)cc3)c2n1
Compound	21	22	23	24	25	26	27	28	29	30
PrP 5UTR inh	1	-11	-29	-12	nt	-27	-4	-17	-2	-2
BJeLR viability	-1	9	-5	2	nt	-6	-8	-7	nt	4
ugtP null kill	-19	-4	10	3	0	2	4	-3	3	-1
Mtb hypoxia rep	-6	9	2	-4	-2	-11	nt	2	-3	7
Mtb hypoxia rep growth	-6	7	5	-4	-3	4	nt	5	-1	1
Sa RN4220 lethal	-8.8	3.8	2.1	0.1	8.2	5.1	0.0	5.1	4.3	-14
Autofluor counter	5424	7313	4549	5722	nt	3627	4830	8080	4066	4466

(31) CCOC(=O)C1CCN(C(=O)c2cccc(NC3=NC4CS(=O)(=O)CC4S3)c2)CC1 (stereo not drawn)
(32) Cc1ccc(S(=O)(=O)N2CCC(C(=O)OC(C)C(=O)NC3CCCCC3C)CC2)cc1 (stereo not drawn)
(33) Cc1cc(C)n2nc(-c3cccnc3)nc2n1
(34) Cc1ccccc1-n1c(O)c(/C=N/Nc2nc3c(c(=O)n(C)c(=O)n3C)n2C)c(=O)[nH]c1=S
(35) COc1ccc(-n2c(=O)cc(N3CCN(c4ccccc4OC)CC3)[nH]c2=O)cc1
(36) COc1cccc(N/C=C/c2onc(C)c2[N+](=O)[O-])c1
(37) CC(NC(=O)NC1CCCCC1)C(c1cccs1)N1CCN(c2ccccc2)CC1 (stereo not drawn)
(38) CCCCCCc1ccc(N2C[C@H](C)[C@@H](CC(=O)NCc3ccccc3)C2=O)cc1
(39) Cc1ccc(N(CC(=O)NCc2ccco2)C(=O)CCC(=O)Nc2nccs2)c(C)c1
(40) O=C(CSCc1ccccc1Cl)NN=C1CCCCCC1
Compound	31	32	33	34	35	36	37	38	39	40
PrP 5UTR inh	-4	-9	-31	-19	-26	-59	-13	-18	2	-25
BJeLR viability	-2	nt	-4	12	nt	3	-29	3	-1	-5
ugtP null kill	-5	4	-2	4	1	0	-2	nt	10	5
Mtb hypoxia rep	10	9	nt	10	2	16	-1	nt	3	nt
Mtb hypoxia rep growth	7	0	nt	4	10	5	7	nt	1	nt
Sa RN4220 lethal	-9.7	0.7	-0.2	3.2	5.2	4.5	-15	nt	4.2	-0.2
Autofluor counter	4820	4868	4289	2552	9718	2735	5446	3849	5363	3654

Given as a markdown table: entries from further up.
| No. | Compound | PrP 5UTR inh | BJeLR viability | ugtP null kill | Mtb hypoxia rep | Mtb hypoxia rep growth | Sa RN4220 lethal | Autofluor counter |
| --- | --- | --- | --- | --- | --- | --- | --- | --- |
| 34 | Cc1ccccc1-n1c(O)c(/C=N/Nc2nc3c(c(=O)n(C)c(=O)n3C)n2C)c(=O)[nH]c1=S | -19 | 12 | 4 | 10 | 4 | 3.2 | 2552 |
| 35 | COc1ccc(-n2c(=O)cc(N3CCN(c4ccccc4OC)CC3)[nH]c2=O)cc1 | -26 | nt | 1 | 2 | 10 | 5.2 | 9718 |
| 36 | COc1cccc(N/C=C/c2onc(C)c2[N+](=O)[O-])c1 | -59 | 3 | 0 | 16 | 5 | 4.5 | 2735 |

Remaining list, next part.
(41) Cc1sc(NC(=O)CN(Cc2ccccc2)C(=O)C2CC2)c(C(N)=O)c1C
(42) COC(=O)C(O)(c1ccc2c(c1)CCCN2)C(F)(F)F (stereo not drawn)
(43) O=C(CCCn1c(=O)[nH]c2ccsc2c1=O)N1CCCCC1
(44) CCS(=O)(=O)N1Cc2ccccc2CC1C(=O)NCCc1ccccc1 (stereo not drawn)
(45) COc1ccc(Nc2nc(CC(C)=O)ns2)cc1
(46) COc1cc(CNCc2cccs2)ccc1OCc1ccccc1
(47) COc1cccc(NC(=S)N(CCN(C)C)C(C)c2ccncc2)c1 (stereo not drawn)
(48) CCOC(=O)C1(Cc2ccccc2)CCCN(Cc2ccc(OCC)c(CO)c2)C1 (stereo not drawn)
(49) CCCc1nnc(NC(=O)CCC(=O)NCCc2ccc(OC)c(OC)c2)s1
(50) Cc1ccc(CNC(=O)CSc2nc(N3CCCCC3)nc(N3CCCCC3)n2)cc1
Compound	41	42	43	44	45	46	47	48	49	50
PrP 5UTR inh	-16	-14	-9	-5	-41	-9	-20	52*	-17	-2
BJeLR viability	2	-4	-6	-4	2	7	10	7	-27	2
ugtP null kill	4	3	7	1	-9	-12	16	7	nt	-8
Mtb hypoxia rep	7	11	13	2	2	8	4	7	nt	nt
Mtb hypoxia rep growth	10	3	3	-1	8	6	10	9	nt	nt
Sa RN4220 lethal	4.7	1.6	2.7	1.3	-16	-1.2	5.2	5.9	nt	-7.8
Autofluor counter	4179	6930	3098	4036	2770	5784	4234	7488	2429	4682

(51) CN(c1ccccc1)c1ncccn1
(52) Cc1ccc(S(=O)(=O)NN=Cc2ccccc2OCc2ccccc2)cc1
(53) COC(=O)NNC(=O)CCCOc1ccc(Cl)cc1Cl
(54) Cc1cccc(CN2CCN(C(c3ccccc3)c3ccc(Cl)cc3)CC2)c1 (stereo not drawn)
(55) O=C(c1ccco1)N(Cc1ccc([N+](=O)[O-])cc1)c1ccc(Br)cc1
(56) COc1cc2[nH]c(=S)n(Cc3ccc(F)cc3)c(=O)c2cc1OC
(57) Cc1cc(=O)oc2cc(Oc3ncccn3)ccc12
(58) COc1ccc(CCNC(=O)COC(=O)c2ccc[nH]c2=O)cc1
(59) N#C/C(=C\c1cn[nH]c1-c1ccccc1Br)C(=O)O
(60) COc1cccc2c1OC(=NO)C(C(=O)Nc1cccc(C)c1C)C2 (stereo not drawn)
Compound	51	52	53	54	55	56	57	58	59	60
PrP 5UTR inh	nt	nt	-16	25	-14	-20	-18	-1	6	nt
BJeLR viability	-11	nt	1	0	3	4	-6	-19	3	nt
ugtP null kill	6	13	4	-12	12	8	4	1	9	3
Mtb hypoxia rep	1	4	3	-10	-78	0	4	2	-6	3
Mtb hypoxia rep growth	5	-2	4	-10	-10	0	7	8	2	-3
Sa RN4220 lethal	3.8	35	6.4	-6.3	-1.1	6.2	4.8	0.5	0.6	1.1
Autofluor counter	nt	nt	2024	5259	9767	3270	3833	5734	3193	nt

(61) O=C(NCc1ccccc1Cl)c1ccc(Br)o1
(62) C=CCN1C(=O)/C(=C2\SC(N3CCOCC3)=NC2=O)c2cc(Br)ccc21
(63) CC(C)(C)Cc1nnc(NS(=O)(=O)c2ccc(F)cc2)s1
(64) CCNC(=S)N1CCN(S(=O)(=O)c2cccc(C(F)(F)F)c2)CC1
(65) CCCn1c(C)cc(-c2csc(NC(=O)CCc3nc4ccccc4c(=O)[nH]3)n2)c1C
(66) O=C(CCc1nc2sc3c(c2c(=O)[nH]1)CCCC3)NCCOc1ccccc1
Compound	61	62	63	64	65	66
PrP 5UTR inh	-17	-15	-17	-14	-13	-3
BJeLR viability	2	-2	5	14	-3	7
ugtP null kill	6	3	4	1	-2	-3
Mtb hypoxia rep	nt	nt	8	1	-5	-2
Mtb hypoxia rep growth	nt	nt	2	-11	5	-2
Sa RN4220 lethal	10	1.0	5.6	3.0	0.0	9.5
Autofluor counter	4111	3656	4378	2017	4663	6150

Screens deposited in PubChem by several laboratories.
